MLL AF4-AF9 inh: inhibitors of AF4 peptide binding to AF9, primary screen, biochemical, AlphaScreen, biotin-AF4 peptide, FLAG-AF9, single point; Protein AF-9 (Homo sapiens), P42568; inhibition, % at 10 µM; 0.47% of 350,000 active; AID 651704, 2012;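 active = every replicate reaching a set inhibition limit, whatever the replicate mean, cut at about 25% in these data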;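 note: 0% = plate neutral control median and 100% = total signal loss; the record names both 10 and 1 µM as test concentration; the first replicate is given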
Target sequence (P42568 whole entry, looked up): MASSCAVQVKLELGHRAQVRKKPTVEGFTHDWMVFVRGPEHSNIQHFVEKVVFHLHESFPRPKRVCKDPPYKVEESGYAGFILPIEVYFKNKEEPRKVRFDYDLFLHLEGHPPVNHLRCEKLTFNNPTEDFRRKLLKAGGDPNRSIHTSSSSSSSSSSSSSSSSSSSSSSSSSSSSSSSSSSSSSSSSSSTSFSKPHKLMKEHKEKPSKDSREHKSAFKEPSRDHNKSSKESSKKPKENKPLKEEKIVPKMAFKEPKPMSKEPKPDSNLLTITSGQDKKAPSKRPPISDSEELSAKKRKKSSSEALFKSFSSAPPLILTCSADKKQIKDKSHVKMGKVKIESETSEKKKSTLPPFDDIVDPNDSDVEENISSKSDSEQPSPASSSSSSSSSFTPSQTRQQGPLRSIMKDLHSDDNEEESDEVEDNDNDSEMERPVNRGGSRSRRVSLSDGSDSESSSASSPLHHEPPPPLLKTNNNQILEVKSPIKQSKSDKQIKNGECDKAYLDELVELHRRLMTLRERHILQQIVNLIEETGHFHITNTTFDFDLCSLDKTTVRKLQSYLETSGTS
rRNA inh HTS: reduced GFP signal of wild-type E. coli, primary screen, bacterial rRNA inhibitor project, GFP/RFP fluorescence, OD600, single point; E. coli WT GFP vs humanized-ribosome RFP mutants, 24 h; active compounds read low; DMSO median 0, no signal -100; AID 720706, 2013; 1.6% of 350,000 active; GFP signal change (wild-type ribosome), % (concentration not given with the values);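 active = significant combined selectivity score with lowered wild-type GFP, culture density cut under 30%, mutant RFP and density less affected; inactive = any of these conditions unmet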; note: one replicate is shown; some compounds called inactive have numbers as strong as hits
FGF22 binding: binders of human FGF22 protein, primary screen, FGF22 synaptogenesis inhibitor project, biophysical, thermal shift, single point; recombinant FGF22 thermal shift, SYPRO orange fluorescence; percent of sucrose octasulfate shift, DMSO zero; calls only at 9.99 µM; 1.5% of 340,000 active; AID 651658, 2012;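 active = melting point raised past a set limit in the mean and every replicate; three in four hits are not shown here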
Target sequence (Q9HCT0 whole entry, looked up): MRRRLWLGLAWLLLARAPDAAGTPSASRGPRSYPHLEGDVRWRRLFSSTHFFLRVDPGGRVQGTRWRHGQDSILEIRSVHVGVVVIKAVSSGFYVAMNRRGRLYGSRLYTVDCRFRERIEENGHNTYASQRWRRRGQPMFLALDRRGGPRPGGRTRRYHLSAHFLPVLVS
rRNA inh HTS OD600: further read-out of rRNA inh HTS, marked with its call; OD600 change, %; measured here: OD600 growth;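 optical density of the mix in the first replicate; 0 = DMSO median and -100 = no signal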
rRNA inh HTS RFP: recorded beside rRNA inh HTS, whose call it bears; RFP signal change, %; measured here: RFP humanized mutant strains;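 first replicate; 0 = DMSO median and -100 = no signal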
* hit, by the source's call; i = inactive; & = joins results of further samples. Not all compounds are listed (hit frequency here may not be typical).

MLL AF4-AF9 inh | rRNA inh HTS | rRNA inh HTS OD600 | rRNA inh HTS RFP | FGF22 binding | smiles
-1.0&-5.3 | -4&1 | 4&10 | -4.6&-5.0 | i | CN(C)C(=O)C[C@H]1C[C@@H]2c3cc(NC(=O)NC4CCCC4)ccc3O[C@@H]2[C@@H](CO)O1
-8.7 | -2 | -5 | -0.2 | i | Cc1ccc(C)c(CC(=O)N2CCCCC2c2cc(C(=O)Nc3ccc(F)c(Cl)c3)no2)c1 (centres undefined)
-1.4 | -5 | -2 | 6.1 | i | Cc1ccccc1-c1ccc([C@H]2[C@@H](CO)N3CCCCN(S(C)(=O)=O)C[C@@H]23)cc1
-0.6 | 0 | -6 | -3.0 | i | CCC(=O)Nc1ccc2c(c1)C(=O)N(C)[C@@H]1CC[C@H](CC(=O)NCCOC)O[C@@H]1CO2
-1.0 | -2 | -8 | 28 | i | Cc1ccc(S(=O)(=O)N[C@@H]2C=C[C@@H](CC(=O)N3CCN(c4ccccc4)CC3)O[C@@H]2CO)cc1
3.2 | -2 | -8 | 2.9 | i | C[C@H]1CN([C@@H](C)CO)C(=O)c2cc(NC(=O)Nc3ccc4c(c3)OCO4)ccc2O[C@H]1CN(C)Cc1ccc(-c2ccccc2)cc1
4.9 | 5 | 0 | -0.2 | i | COc1ccc2c3c(n(C)c2c1)[C@H](CO)N(Cc1ccccc1)CC31CN(C)C1
2.0 | 2 | -5 | -0.1 | i | COc1cc(CN2CC3(CN(C(=O)Nc4c(C)noc4C)C3)c3c(n(C)c4cc(OC)ccc34)[C@H]2CO)cc(OC)c1
0.1 | -5 | -12 | -1.9 | i | C[C@@H]1CN([C@@H](C)CO)C(=O)c2cccc(NC(=O)Nc3ccc(C(F)(F)F)cc3)c2O[C@H]1CN(C)C(=O)Nc1ccc(C(F)(F)F)cc1
2.1 | -2 | -1 | -2.9 | i | CO[C@H]1CN(C)C(=O)c2cc(NS(=O)(=O)c3ccc(C)cc3)ccc2OC[C@H](C)N(C(=O)NC(C)C)C[C@H]1C
0.2 | 18 | 16 | 5.4 | i | C=C(C1=CCN(S(=O)(=O)C(C)(C)C)[C@@H]1CCO)c1ccccc1
0.0 | 6 | 4 | 0.0 | i | O=C(C[C@@H]1C[C@H]2c3cc(NC(=O)Cc4ccncc4)ccc3O[C@H]2[C@H](CO)O1)NCc1cc(F)ccc1F
-3.0 | 0 | 9 | 0.1 | i | C[C@H](CO)N1C[C@H](C)[C@H](CN(C)C(=O)NC2CCCCC2)Oc2ccc(NC(=O)NC3CCCCC3)cc2CC1=O
0.7 | 2 | 0 | -1.1 | i | CC(C)NC(=O)Nc1cccc2c1O[C@@H](CN(C)CC1CCCCC1)[C@@H](C)CN([C@@H](C)CO)C2=O
0.0 | 6 | 10 | 0.4 | i | CCOP1(=O)C=C(Sc2ccc([N+](=O)[O-])cc2[N+](=O)[O-])C(C)(C)O1 (centres undefined)
-3.2 | 1 | -5 | -0.1 | i | CO[C@H]1CN(C)C(=O)c2cc(NC(C)=O)ccc2OC[C@@H](C)N(C(=O)C2CCOCC2)C[C@@H]1C
-3.3 | 2 | 6 | -1.9 | i | C[C@H](O)C#Cc1cnc2c(c1)C(=O)N([C@@H](C)CO)C[C@@H](C)[C@H](CN(C)C(=O)c1ccccc1)O2
-0.6 | 2 | 5 | -3.7 | i | COc1cccc(C(=O)Nc2ccc3c(c2)C(=O)N(C)[C@H]2CC[C@H](CC(=O)NCCCN4CCOCC4)O[C@@H]2CO3)c1
-2.2 | 0 | 0 | -2.1 | i | COCC(=O)Nc1ccc2c(c1)OC[C@@H](C)N(CC1CC1)C[C@@H](C)[C@@H](OC)CN(C)C2=O
-3.0 | 4 | 16 | -2.7 | i | COc1cccc(-c2cnc3c(c2)C(=O)N([C@@H](C)CO)C[C@H](C)[C@H](CN(C)C(C)=O)O3)c1
-0.6 | -3 | -7 | -3.0 | i | CC(C)C#Cc1cnc2c(c1)C(=O)N([C@H](C)CO)C[C@@H](C)[C@H](CN(C)C(=O)c1ccccc1F)O2
5.2 | -16 | -28 | -3.3 | i | COc1cc(CCN(C(=O)c2cc3ccccc3[nH]2)C(C)c2nc3ccccc3[nH]2)cc(OC)c1 (centres undefined)
1.3 | -1 | 5 | 1.4 | i | O=C(C[C@@H]1C=C[C@@H](NC(=O)Nc2cc(F)ccc2F)[C@H](CO)O1)Nc1ccccc1
0.1 | 11 | 6 | 3.3 | i | OC(c1ccc(F)cc1)c1nc(-c2ccoc2)cs1 (centres undefined)
-0.4 | 0 | 8 | -3.6 | i | C/C=C/c1cnc2c(c1)C(=O)N([C@H](C)CO)C[C@@H](C)[C@H](CN(C)C(=O)c1ccc3c(c1)OCO3)O2
-0.1 | -2 | -8 | -1.2 | i | C[C@@H]1CN([C@@H](C)CO)S(=O)(=O)c2ccc(C#CC3(O)CCCC3)cc2O[C@@H]1CN(C)C(=O)Nc1ccc(F)cc1
-1.9 | 1 | 1 | -0.7 | i | CO[C@@H]1CN(C)C(=O)c2ccc(NC(=O)NC(C)C)cc2OC[C@H](C)NC[C@H]1C
0.2 | 0 | -1 | -0.5 | i | O=C(C[C@@H]1CC[C@H]2[C@@H](COC[C@H](O)CN2Cc2nccs2)O1)NCc1ccccc1Cl
0.3 | -2 | -5 | 1.4 | i | Cc1noc(C)c1-c1ccc(C(=O)NCc2ccncc2)c2occc12
8.4 | -3 | 1 | 1.4 | i | CCC(=O)Nc1ccc2c(c1)C(=O)N(C)C[C@H](OC)[C@H](C)CN(Cc1cccc(F)c1)[C@@H](C)CO2
-2.6 | -1 | -4 | 1.3 | i | O=C(Nc1ccc(F)cc1)N1CCCCN2[C@H](CO)[C@H](c3ccc(-c4ccncc4)cc3)[C@@H]2C1
17 | 0 | 9 | 0.2 | i | COc1ccc2c3c(n(C)c2c1)[C@H](CO)N(Cc1ccccc1OC)CC31CCN(C)CC1
-1.3 | 1 | 2 | -1.4 | i | CN(C)C(=O)C[C@@H]1C=C[C@H](NC(=O)NC2CCCCC2)[C@@H](CO)O1
-4.6 | 5 | 3 | -1.3 | i | C[C@H](CO)N1C[C@H](C)[C@H](CN(C)Cc2ccc(C(=O)O)cc2)Oc2ccc(NS(=O)(=O)c3ccc(F)cc3)cc2CC1=O
-0.1 | -1 | 10 | -0.3 | i | Cc1ccc(NC(=O)CSCC(=O)N(C)CC(=O)Nc2c(C)cccc2C)cc1
0.6 | 8 | 2 | 3.7 | i | C[C@H]1CN([C@@H](C)CO)S(=O)(=O)c2ccc(C#CC3CCCC3)cc2O[C@H]1CN(C)C
2.7 | 2 | 7 | -1.4 | i | C[C@@H]1CN([C@@H](C)CO)C(=O)c2cccc(NC(=O)CCCCCC(=O)Nc3ccccc3N)c2O[C@H]1CN(C)C(=O)Nc1ccccc1
-2.6 | 4 | 4 | -2.4 | i | Cc1noc(C)c1NC(=O)N(C)C[C@@H]1Oc2ccc(NC(=O)Nc3ccccc3)cc2CC(=O)N([C@@H](C)CO)C[C@@H]1C
3.7 | -3 | -1 | 3.0 | i | Cc1cccc(S(=O)(=O)N2C[C@H]3[C@@H](c4ccccc42)[C@H](CO)N3CC2CCOCC2)c1
-1.4 | 2 | -11 | -1.6 | i | Cc1ccc(S(=O)(=O)N(C)C[C@@H]2OCCCC[C@@H](C)Oc3ccc(NC(=O)Nc4ccc(F)cc4)cc3C(=O)N([C@@H](C)CO)C[C@H]2C)cc1
5.2 | -9 | -35 | 6.0 | i | COc1ccc2c3c(n(C)c2c1)[C@H](CO)N(CC1CC1)CC31CN(S(=O)(=O)c2cccs2)C1
-1.5 | 2 | -4 | -0.2 | i | O=C(C[C@@H]1CC[C@@H](NC(=O)C2CCOCC2)[C@@H](CO)O1)Nc1nccs1
-4.0 | 1 | 1 | -0.8 | i | CCc1ccc(C(=O)OCC(=O)Nc2c(C)n(C)n(-c3ccccc3)c2=O)cc1
0.1 | -1 | 0 | -0.8 | i | CO[C@@H]1CN(C)C(=O)c2cc(NC(=O)Nc3cccc(F)c3)ccc2OC[C@@H](C)NC[C@@H]1C
4.7 | -2 | 6 | 1.0 | i | COc1ccccc1C#Cc1cnc2c(c1)C(=O)N([C@@H](C)CO)C[C@H](C)[C@H](CN(C)CC1CC1)O2
-1.8 | 0 | -1 | -1.6 | i | CC(C)NC(=O)Nc1ccc2c(c1)C(=O)N([C@@H](C)CO)C[C@@H](C)[C@@H](CN(C)C)O2
6.8 | -9 | -5 | -1.5 | i | COc1ccc(CN(C)C[C@H]2Oc3c(NC(=O)c4ccncc4)cccc3C(=O)N([C@H](C)CO)C[C@@H]2C)cc1
-2.5 | 0 | -5 | 2.7 | i | C[C@H](CO)N1C[C@H](C)[C@H](CN(C)C(=O)c2ccccc2F)Oc2ncc(-c3ccncc3)cc2C1=O
-3.9 | 4 | 14 | 0.1 | i | C[C@H](NC(=O)C[C@H]1C[C@H]2c3cc(NC(=O)Nc4ccc(C(F)(F)F)cc4)ccc3O[C@H]2[C@H](CO)O1)c1ccccc1
-1.5 | 1 | 6 | -1.0 | i | C[C@@H]1CN([C@H](C)CO)C(=O)c2cc(C#CC3CC3)cnc2O[C@H]1CN(C)C(=O)c1ccc(F)cc1
-62 | 2 | 8 | -1.0 | i | CCOc1ccc(NC(=O)N(O)C2(C#N)CCCCC2)cc1
1.3 | 8 | -11 | -3.7 | i | CNC(=O)C1CC(=O)N(c2ccc(OCC(=O)Nc3ccc(F)cc3)cc2)C1 (centres undefined)
-1.4 | 4 | 2 | -0.6 | i | O=C(CN1CCOCC1)NCC[C@H]1CC[C@@H](NC(=O)Cc2ccccn2)[C@H](CO)O1
-3.2 | 6 | 18 | -0.6 | i | CCOc1ccc(S(=O)(=O)N2CCOCC2)cc1NC(=O)CCN1C(=O)NC2(CCCC2)C1=O
2.2 | 3 | -1 | 1.7 | i | OC[C@@H]1[C@@H]2c3ccccc3NC[C@@H]2N1Cc1ccccc1Cl

Among those listed so far, these have an aryl methoxy group:
MLL AF4-AF9 inh | rRNA inh HTS | rRNA inh HTS OD600 | rRNA inh HTS RFP | FGF22 binding | smiles
4.9 | 5 | 0 | -0.2 | i | COc1ccc2c3c(n(C)c2c1)[C@H](CO)N(Cc1ccccc1)CC31CN(C)C1
2.0 | 2 | -5 | -0.1 | i | COc1cc(CN2CC3(CN(C(=O)Nc4c(C)noc4C)C3)c3c(n(C)c4cc(OC)ccc34)[C@H]2CO)cc(OC)c1
-0.6 | 2 | 5 | -3.7 | i | COc1cccc(C(=O)Nc2ccc3c(c2)C(=O)N(C)[C@H]2CC[C@H](CC(=O)NCCCN4CCOCC4)O[C@@H]2CO3)c1
-3.0 | 4 | 16 | -2.7 | i | COc1cccc(-c2cnc3c(c2)C(=O)N([C@@H](C)CO)C[C@H](C)[C@H](CN(C)C(C)=O)O3)c1
5.2 | -16 | -28 | -3.3 | i | COc1cc(CCN(C(=O)c2cc3ccccc3[nH]2)C(C)c2nc3ccccc3[nH]2)cc(OC)c1 (centres undefined)
17 | 0 | 9 | 0.2 | i | COc1ccc2c3c(n(C)c2c1)[C@H](CO)N(Cc1ccccc1OC)CC31CCN(C)CC1
5.2 | -9 | -35 | 6.0 | i | COc1ccc2c3c(n(C)c2c1)[C@H](CO)N(CC1CC1)CC31CN(S(=O)(=O)c2cccs2)C1
4.7 | -2 | 6 | 1.0 | i | COc1ccccc1C#Cc1cnc2c(c1)C(=O)N([C@@H](C)CO)C[C@H](C)[C@H](CN(C)CC1CC1)O2
6.8 | -9 | -5 | -1.5 | i | COc1ccc(CN(C)C[C@H]2Oc3c(NC(=O)c4ccncc4)cccc3C(=O)N([C@H](C)CO)C[C@@H]2C)cc1

Source: PubChem BioAssay (Broad Institute)
